Bioassay records deposited in PubChem BioAssay by ICCB-Longwood Screening Facility, Harvard Medical School.
GIV-Gai inh: GIV-Galpha-i interaction inhibition; AID 1224905; 210,000 compounds, 0.42% hits; percent of control (FP), % (no concentration beside the values); Galpha-i3/FITC-GIV peptide fluorescence polarization, 90 min; hits give low values; scaled: aluminum fluoride 0%, vehicle 100%; P08753;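 active means replicate mean at 85% of control or lower, very high polarization wells dropped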;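 further: wells of about 15 µL received 100 nL stock; the first replicate is given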
Target sequence (P08753 whole entry, looked up): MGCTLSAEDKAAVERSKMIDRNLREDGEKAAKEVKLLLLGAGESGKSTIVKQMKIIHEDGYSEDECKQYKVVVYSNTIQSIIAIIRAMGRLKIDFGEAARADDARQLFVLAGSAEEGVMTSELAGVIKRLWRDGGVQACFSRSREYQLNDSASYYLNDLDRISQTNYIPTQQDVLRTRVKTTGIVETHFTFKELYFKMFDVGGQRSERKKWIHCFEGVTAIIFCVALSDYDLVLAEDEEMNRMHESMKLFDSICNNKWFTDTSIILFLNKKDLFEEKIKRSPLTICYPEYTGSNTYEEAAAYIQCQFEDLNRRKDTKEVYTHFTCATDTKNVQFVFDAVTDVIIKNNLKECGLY
HCMV UL50-53 inh: inhibitors of HCMV UL50-UL53 nuclear egress complex interaction | inhibition, % (no concentration beside the values) | HTRF UL50-UL53 interaction, normalized percent inhibition | 190,000 compounds, 0.15% hits;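 active means both replicates at 50% or more, plus weaker picks with an unusually low signal ratio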;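 further: stock transfer was 100 nL into about 20 µL; 0% = negative control wells and 100% = wells with untagged competitor protein; inactives centre near -12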
Sa growth inh: inhibitors of Staphylococcus aureus growth at 42 °C | S. aureus RN4220 growth, OD600, 20 h; hits give low values | relative growth, % (no concentration beside the values) | 170,000 compounds, 0.53% hits;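 active means growth at 42 °C up to 50% and 20 or more points under that at 30 °C, or under 10% at both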;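 further: 300 nL library stock went into each well; scaled to the means of positive and negative controls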
Sa growth inh second temp: further read-out of Sa growth inh, marked with its call; relative growth, %; measured here: growth at 30 °C;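 optical density after 20 h as mean of two plates; 100% = untreated growth and lower means inhibition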
* hit, by the source's call; · = no result given; & = joins results of further samples.

Preview (seven entries):
#	SMILES	GIV-Gai inh	HCMV UL50-53 inh	Sa growth inh	Sa growth inh second temp
1	CC(=O)NC(=S)Nc1ccc(Nc2ccccc2)cc1	101	3	123	107
2	CCOCCc1nn2c(=O)cc(COC(=O)c3ccccc3NC(=O)c3ccc(C)cc3)nc2s1	102	·	87	83
3	Cc1ccc(CN(C(=O)CC(C)C)c2nc3nc(C)c(C)c(=O)n3[nH]2)cc1	105	-22	·	·
4	CC(C(=O)N1CCc2ccccc21)N1C(=O)c2ccccc2C1=O (stereo not given)	101	·	111	94
5	CCc1ccc(C(=O)c2cnc3ccc(C)cc3c2S(=O)(=O)c2ccc(OC)cc2)cc1	109	-10	88	90
6	O=C1NCC(c2ccccc2)C1C(=O)N/N=C\c1cc2c(cc1Br)OCO2 (stereo not given)	96	-79	99	107
7	CCOC(=O)c1c(-c2ccccc2)oc2ccc(OC(=O)c3ccc(Cl)cc3)cc12	101	-13	·	·

This part in full, previewed entries included:
#	SMILES	GIV-Gai inh	HCMV UL50-53 inh	Sa growth inh	Sa growth inh second temp
1	CC(=O)NC(=S)Nc1ccc(Nc2ccccc2)cc1	101	3	123	107
2	CCOCCc1nn2c(=O)cc(COC(=O)c3ccccc3NC(=O)c3ccc(C)cc3)nc2s1	102	·	87	83
3	Cc1ccc(CN(C(=O)CC(C)C)c2nc3nc(C)c(C)c(=O)n3[nH]2)cc1	105	-22	·	·
4	CC(C(=O)N1CCc2ccccc21)N1C(=O)c2ccccc2C1=O (stereo not given)	101	·	111	94
5	CCc1ccc(C(=O)c2cnc3ccc(C)cc3c2S(=O)(=O)c2ccc(OC)cc2)cc1	109	-10	88	90
6	O=C1NCC(c2ccccc2)C1C(=O)N/N=C\c1cc2c(cc1Br)OCO2 (stereo not given)	96	-79	99	107
7	CCOC(=O)c1c(-c2ccccc2)oc2ccc(OC(=O)c3ccc(Cl)cc3)cc12	101	-13	·	·
8	CCOC(=O)C1=C(CC)NC2=C(C(=O)CCC2)C1c1ccc(Cl)cc1 (stereo not given)	107	·	83	85
9	CCOC(=O)c1cc(-c2ccc(C)cc2)n(CCC(=O)NC2CCCCCC2)c1C	106	·	102	85
10	CCCOc1cccc(C(=O)Nc2cccc(NC(=O)c3ccc(C(C)(C)C)cc3)c2)c1	99	-55	86	85
11	CC(=O)N(c1ccc2oc3c(c2c1)CCCC3)S(=O)(=O)c1ccccc1	101	·	114	96
12	Cc1c(NC(=O)CCN2C(=O)/C(=C/c3ccc(Cl)cc3Cl)SC2=S)c(=O)n(-c2ccccc2)n1C	102	-1	·	·
13	CCC(Sc1nc(NC(C)=O)c(NC(=O)c2cccs2)c(=O)[nH]1)C(=O)O (stereo not given)	100	-31	89	81
14	COc1ccc(-n2nc(C(=O)N3CCN(c4ccccc4OC)CC3)c3c4ccccc4n(C)c3c2=O)cc1Cl	109	5	89	95
15	Cc1ccsc1/C=N/N1CCN(Cc2ccc(Cl)cc2)CC1	105	-7	114	102
16	CCN1C(=O)CCSc2ccccc21	104&108	-41&2	93	89
17	CC(C)n1ncc2c(C(=O)OCc3ccc(C#N)cc3)cc(-c3ccccc3)nc21	·	-22	74	87
18	O=C(NCC1COc2ccccc2O1)c1ccco1 (stereo not given)	108	-3	83	88
19	COC(=O)c1ccc(C(=O)OC)c(NC(C)=O)c1	108	-14	87	112
20	COC(=O)c1ccccc1NC(=O)CNc1cc(Cl)ccc1N1CCOCC1	·	-8	113	102

(listing goes on)
#	SMILES	GIV-Gai inh	HCMV UL50-53 inh	Sa growth inh	Sa growth inh second temp
21	Cc1cnn(-c2ccccc2)c(=O)c1N(C)C	101	-32	86	79
22	CC(NC(=O)c1ccco1)C(=O)Nc1ccc(OCc2ccccc2)cc1 (stereo not given)	·	-36	88	82
23	CCOc1ccc(CCNC(=O)c2oc(=O)c3ccccc3c2-c2ccc(C)cc2)cc1OCC	103	-23	106	88
24	COc1ccc(-c2nc3cc(C(C)C)ccc3o2)cc1NC(=O)c1ccccc1[N+](=O)[O-]	109	-6	110	84
25	O=c1c(Cl)c(N2CCOCC2)cnn1-c1ccccc1	105	-20	102	88
26	CC(=O)SCCC(=O)Nc1ccccc1	107	-10	111	97
27	O=S(=O)(NCCN1CCOCC1)c1ccc(-c2nnc(C3CCCC3)o2)s1	108	-29	·	·
28	COC(=O)c1ccc(-c2ncc(-c3ccc(N(C)C)cc3)o2)cc1	87	6	100	97
29	N#CC1=C(N)N(c2ccccc2)c2oc(-c3ccccc3)nc2C1c1cccc(O)c1 (stereo not given)	·	2	116	80
30	CCN(CC)C(=O)C1CCCN(c2ncnc3onc(C)c23)C1 (stereo not given)	104	·	97	79
31	Cc1nc2nc(C)c(Cc3ccccc3)c(=O)n2[nH]1	102	-7	·	·
32	O=C(CSc1nccn1Cc1ccc(F)cc1)Nc1nc2ccccc2s1	100	·	97	57
33	Nc1nonc1NC(=O)N/N=C/c1ccc(C(F)(F)F)cc1	105	-8	93	114
34	Cc1ccc(NC(=O)C(Sc2nnc(-c3ccc4c(c3)OCO4)o2)c2ccccc2)cc1 (stereo not given)	·	-13	75	86
35	O=C(NCCn1c(C(F)(F)F)nc2cccnc21)c1ccc2c(c1)OCO2	108	1	·	·
36	O=C(NCc1ccc(N2CCCC2=O)cc1)Nc1ccccc1	111	15	99	104
37	CP(=O)(c1nccn1-c1ccc(Cl)nn1)N1CCCCCC1 (stereo not given)	·	-36	105	88
38	CC(C)C(NC(=O)c1ccccc1NC(=O)c1ccco1)C(=O)N1CCCCC1 (stereo not given)	·	-12	82	83
39	C/C(=C\C#N)N1CCOCC1	·	1	107	91
40	Cc1ccc(-n2ncc(C(=O)NCCN3CCc4ccccc4C3)c2C2CCN(C(=O)OC(C)(C)C)CC2)cc1C	110	·	89	89

An excerpt of these results, field by field.
#34 Cc1ccc(NC(=O)C(Sc2nnc(-c3ccc4c(c3)OCO4)o2)c2ccccc2)cc1 (stereo not given)
  GIV-Gai inh = ·; HCMV UL50-53 inh = -13; Sa growth inh = 75; Sa growth inh second temp = 86
#35 O=C(NCCn1c(C(F)(F)F)nc2cccnc21)c1ccc2c(c1)OCO2
  GIV-Gai inh = 108; HCMV UL50-53 inh = 1; Sa growth inh = ·; Sa growth inh second temp = ·
#36 O=C(NCc1ccc(N2CCCC2=O)cc1)Nc1ccccc1
  GIV-Gai inh = 111; HCMV UL50-53 inh = 15; Sa growth inh = 99; Sa growth inh second temp = 104
#37 CP(=O)(c1nccn1-c1ccc(Cl)nn1)N1CCCCCC1 (stereo not given)
  GIV-Gai inh = ·; HCMV UL50-53 inh = -36; Sa growth inh = 105; Sa growth inh second temp = 88

Additional results.
#	SMILES	GIV-Gai inh	HCMV UL50-53 inh	Sa growth inh	Sa growth inh second temp
41	C=CCn1cc(C(=O)OC)c(=O)c2cc(S(=O)(=O)N(CC)CC)ccc21	100	·	97	87
42	Cc1nc2ccc(S(=O)(=O)NCC(=O)N3CCC(Cc4ccccc4)CC3)cc2s1	101	-1	104	85
43	CCOC(=O)c1[nH]c(COC(=O)c2ccccc2NC(=O)c2ccco2)c(C(=O)OCC)c1C	·	-21	88	89
44	CC(CNC(=O)Cn1ccc2cc(S(=O)(=O)N3CCCCCC3)ccc21)c1ccccc1 (stereo not given)	98	·	119	104
45	COc1ccc(Cc2nnc(Nc3ccc4c(c3)OCO4)[nH]c2=O)cc1	101	-4	90	82
46	COc1ccc(-c2onc(C)c2C)cc1S(=O)(=O)N1CCCC(CN2CCc3ccccc3C2)C1 (stereo not given)	106	-6	·	·
47	C/C(=N\O)c1cc(-c2ccccc2)no1	102	-9	-0.7*	-0.4*
48	Cc1cc(C(=O)NCc2cccc(Cl)c2)c2c(=O)n(C)c(=O)n(C)c2n1	102	-21	·	·
49	FC(F)(F)c1cnc(-n2cncn2)c(Cl)c1	96	-11	·	·
50	CC(C)OC1(O)C(=O)c2ccccc2C(=O)C1(O)OC(C)C (stereo not given)	·	99*	84	86
51	COc1ccc(C(=O)N2CCC(O)(c3ccc(Cl)cc3)CC2)cc1OC	101	1	88	101
52	O=C(CSc1nnc(SCC(=O)NC2CC2)s1)NC1CC1	·	-10	82	87
53	CCOC(=O)CSc1nc2ccc(NC(=O)c3ccccc3)cc2s1	105	-16	95	88
54	CC1Cc2ccccc2N1C(=O)Nc1c[nH]c2ccccc12 (stereo not given)	103	-43	15	7
55	O=C(Nc1cccc(O)c1)C1CC(c2cccc(Br)c2)=NO1 (stereo not given)	98	·	113	66
56	O=C(O)c1ccc(NC2OC(CO)C(O)C2O)cc1 (stereo not given)	·	-5	91	104
57	COCCCn1c(=O)c2ccccc2n(CC(N)=O)c1=O	99	-4	91	93
58	O=C1CC2(CCN(C(=O)c3ccccc3)CC2)Oc2ccccc21	102	-18	101	91
59	CCCCCc1nc2ccccc2[nH]1	100	-16	77	72
60	Cc1ccc(OCCn2c(CC(C)(C)C)nc3ccccc32)cc1	101	·	79	62

(continued)
#	SMILES	GIV-Gai inh	HCMV UL50-53 inh	Sa growth inh	Sa growth inh second temp
61	Cc1nc(-c2ccccc2)cs1	105	4	·	·
62	CC(C)CN(CC(C)C)S(=O)(=O)c1ccc(-c2ccc(=O)[nH]n2)s1	106	13	99	92
63	CCCCNC(=O)Cc1ccc(-n2c(=O)c3ccccc3n(CC(=O)NC(C)C)c2=O)cc1	94	8	·	·
64	N#C/C(=C\c1ccc(F)cc1)c1csc2ccccc12	96	-11	107	81
65	CSc1ccccc1NC(=O)CSc1ncccn1	101	9	106	123
66	Cc1cc2cc(CN3C(=O)c4ccccc4C3=O)ccc2n1C	101	-41	92	83
67	COc1ccc(-c2cc(C(F)(F)F)n3nc(C(=O)O)c(Cl)c3n2)cc1OC	107	-189	95	91
68	CN(C)c1ccc(CNC(=O)c2cnc3sc(N4CCCCCC4)nn3c2=O)cc1	106	·	88	94
69	Nc1ccccc1NC(=O)CCC(=O)O	103	-4	80	73
70	N#Cc1c(NS(=O)(=O)c2ccccc2)n(-c2ccccc2)c2nc3ccccc3nc12	·	-42	107	81
71	N/C(=N\O)c1ccc2c(c1)OCO2	104	-17	107	90
72	Fc1cccc(-c2nnc3sc(-c4ccc5ccccc5n4)nn23)c1	105	-15	·	·
73	COC(=O)Nc1ccccc1	·	-24	112	94
74	CCCNS(=O)(=O)c1ccc(OCC(=O)NCCC2=CCCCC2)cc1	100	-2	110	92
75	C=CCNc1oc(Cc2ccccc2)nc1C#N	106	-14	112	79
76	COc1ccc(C2=NN(C(=O)c3ccc(Br)o3)C(c3ccc(OC)c(OC)c3)C2)cc1OC (stereo not given)	99	-12	·	·
77	Cc1oc(-c2ccccc2)nc1Cn1c(SCC(=O)Nc2ccc(F)cc2)nc2ccccc21	98	-7	·	·
78	O=C(NCc1ccccc1)Nc1ccccc1F	104	-28	74	98
79	COc1ccc(-c2cc(-c3ccccc3O)n(C3C(=O)Nc4ccc(Br)cc43)n2)cc1 (stereo not given)	·	-8	62	76
80	N#Cc1nc(-c2ccc(S(=O)(=O)N3CCCCC3)cc2)oc1NCC1CCCO1 (stereo not given)	103	-27	·	·

Overlap with the part before: 3 entries, then new ones.
#	SMILES	GIV-Gai inh	HCMV UL50-53 inh	Sa growth inh	Sa growth inh second temp
78	O=C(NCc1ccccc1)Nc1ccccc1F	104	-28	74	98
79	COc1ccc(-c2cc(-c3ccccc3O)n(C3C(=O)Nc4ccc(Br)cc43)n2)cc1 (stereo not given)	·	-8	62	76
80	N#Cc1nc(-c2ccc(S(=O)(=O)N3CCCCC3)cc2)oc1NCC1CCCO1 (stereo not given)	103	-27	·	·
81	CCOC(=O)c1cnc2c(Cl)cc(Cl)cc2c1NCCOCCO	111	-48	85	79
82	CCOCCc1nn2c(=O)cc(COC(=O)c3ccc4c(c3)OCO4)nc2s1	107	·	99	98
83	Cn1c(=O)c2c(nc(Sc3nnc(NC(=O)NC4CCCC4)s3)n2C)n(C)c1=O	98	-31	·	·
84	CCN1CCN(S(=O)(=O)c2cc(-c3ccno3)sc2C)CC1	125	-22	·	·
85	CN(C)S(=O)(=O)Nc1ccc2nc(N3CCN(c4ccccc4)CC3)cc(C(=O)O)c2c1	108	-68	·	·
